Bioassay records (PubChem BioAssay)
Marburg entry inh: qHTS for inhibitors of binding or entry into cells for Marburg Virus | Marburg virus pseudotyped entry inhibition, cell reporter; control for the full effect not named in the record; about a third of the inactives were read at about 46 µM | AID 540276, 2011 | 1.8% of 300,000 active | Potency, µM (top dose mostly 37.8 µM), without a hit: top-dose activity change, negative = inhibition, most hits filed as inhibitors; active = well fitted inhibition curve with a large enough effect; inconclusive = small, poorly fitted or top-dose-only effect, or effect the other way; inactive = flat fitted curve, though single readings scatter; tested in HEK293 cells; about a fifth of its hits are not listed in these tables; further: on the % scale 0 is the no-effect control and ±100 the full control effect; luciferase read-out
RE007 growth inh: qHTS Assay for Inhibitors of the HIV-1 protein Vpr. 0.21% of 360,000 active. S. pombe RE007 Vpr strain, BacTiter-Glo ATP luminescence, 24 h; control for the full effect not named in the record. AID 651644, 2012. Potency, µM (doses to about 92.2 µM), for inactives: top-dose activity change, negative = less growth; active = well fitted falling curve with a large enough effect; inconclusive = small, poorly fitted or top-dose-only effect; inactive = no such curve, though single readings can be large or run the other way;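 further: on the % scale 0 is the no-effect control and ±100 the full control effect; nearly all actives have a fitted effect of over 50% in size; the assay follows cell death caused by Vpr and the record does not say whether a fall means rescue or toxicity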
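Fission yeast RE007 carrying one integrated HIV-1 vpr copy, seeded at OD 0.01 in PMG+AL medium with 23 nL pinned compound. Grown 24 h at 30 degrees; viability read by BacTiter-Glo luminescence after 5 min.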
Cruzain noTriton: qHTS Assay for Promiscuous and Specific Inhibitors of Cruzain (without detergent); purified cruzain, Z-FR-AMC fluorescence, no detergent; Potency, µM, inactives show max response, negative = inhibition, actives largely listed as inhibitors; 2.3% of 200,000 active; AID 1476, 2009;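 further: plate controls were enzyme without inhibitor for no effect and buffer without enzyme for full effect; nearly all actives have a fitted effect of over 40% in size; top concentration of the series not given in the record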
Target sequence (P25779 123-467 limits assumed): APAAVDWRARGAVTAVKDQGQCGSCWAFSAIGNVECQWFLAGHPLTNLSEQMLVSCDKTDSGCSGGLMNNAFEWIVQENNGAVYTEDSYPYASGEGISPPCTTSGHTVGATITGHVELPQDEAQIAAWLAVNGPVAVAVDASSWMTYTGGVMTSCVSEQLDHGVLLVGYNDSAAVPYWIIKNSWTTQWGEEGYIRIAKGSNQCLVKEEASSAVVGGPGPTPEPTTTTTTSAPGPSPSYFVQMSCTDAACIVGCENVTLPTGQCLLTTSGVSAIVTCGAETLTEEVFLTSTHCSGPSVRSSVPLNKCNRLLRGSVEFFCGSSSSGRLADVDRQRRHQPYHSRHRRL
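Detergent-free condition (0.00005% Triton X-100) in acetate buffer pH 5.5 with DTT. 1.5 nM enzyme and compound were pre-mixed 15 min, then 2 uM Z-FR-AMC substrate added; reaction progress from fluorescence change between first and third reads (60 s).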
SARS PLpro yeast: qHTS of Yeast-based Assay for SARS-CoV PLP | S. cerevisiae expressing SARS-CoV PLpro, growth rescue; control for the full effect not named in the record | Potency, µM (titrated, usually from 32.9 µM), inactives show at the top dose activity, positive = growth rescue | 0.19% of 330,000 active | AID 485353, 2010; active means well fitted rising curve with a large enough effect; inconclusive means small, poorly fitted or top-dose-only effect; inactive means no such curve, though single readings can be large or run the other way; further: 0% is about no effect; nearly all actives have a fitted effect of over 55% in size; growth read by luminescence after 48 h
2A StopGo: High Throughput Screening for Foot and Mouth Disease Virus Antivirals; 1.2% of 410,000 active; human cells with a luciferase reporter of 2A StopGo recoding; control for the full effect not named in the record; AID 1159524, 2015; Potency, µM (highest dose often 57.9 µM), inactives show at the highest dose signal change, negative = less light; active = well fitted falling curve with a large enough effect; inconclusive = small, poorly fitted or top-dose-only effect; inactive = no such curve, though single readings can be large or run the other way; tested in HEK293T cells; further: on the % scale 0 is the no-effect control and ±100 the full control effect; nearly all actives have a fitted effect of over 45% in size; luciferase light after 4 h
Cruzain Triton: qHTS Assay for Promiscuous and Specific Inhibitors of Cruzain (with detergent) | 0.43% of 200,000 active | Potency, µM, for inactives: max response, negative = inhibition, hits mostly inhibitors | Cruzipain (Trypanosoma cruzi), P25779 | purified cruzain, Z-FR-AMC fluorescence, 0.01% Triton;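 further: plate controls were neutral wells for no effect and buffer without enzyme for full effect; nearly all actives have a fitted effect of over 40% in size; top concentration of the series not given in the record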
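Cysteine protease activity tested under reducing, mildly acidic conditions (100 mM sodium acetate pH 5.5, 5 mM DTT) plus 0.01% Triton X-100. Cruzain 1.5 nM; substrate Z-FR-AMC 2 uM; 15 min compound preincubation at room temperature.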
LASV entry inh: qHTS for Inhibitors of binding or entry into cells for Lassa Virus. 1.2% of 300,000 active. Potency, µM (highest dose often 37.9 µM), without a hit: at the top dose activity change, negative = inhibition, actives largely listed as inhibitors. Lassa virus pseudotype entry inhibition, cell reporter; control for the full effect not named in the record. AID 540256, 2011; active means well fitted inhibition curve with a large enough effect; inconclusive means small, poorly fitted or top-dose-only effect, or effect the other way; inactive means flat fitted curve, though single readings scatter; tested in HEK293 cells; further: on the % scale 0 is the no-effect control and ±100 the full control effect; nearly all actives have a fitted effect of over 50% in size; luciferase read-out
NS1 function inh: qHTS Assay for Inhibitors of Influenza NS1 Protein Function. Potency, µM (titrated, usually from 46.1 µM), for the others: at the top dose activity, positive = more growth. 0.4% of 270,000 active. S. cerevisiae slowed by influenza A NS1, growth recovery by OD600; active means well fitted rising curve with a large enough effect; inconclusive means small, poorly fitted or top-dose-only effect; inactive means no such curve, though single readings can be large or run the other way; further: nearly all actives have a fitted effect of over 50% in size
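Recovery from NS1-induced slow growth read by OD600 in budding yeast switched to galactose assay medium (pH 6.0, -URA) at 1:100 dilution. Compound 23 nl per well; the matching strain lacking NS1 serves as control.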
Numbers without * were called inactive; ? = inconclusive; · = not tested or not shown; & = joins results of further samples; [ ] = remark or other dose. Unless noted, the call rests on the fitted dose curve; in most records, active means well fitted curve in the direction sought with a large enough effect; inconclusive means small, poorly fitted or top-dose-only effect, or another doubt; inactive means no such curve, though single readings can be large; an effect the other way counts as inactive or inconclusive. Potency means the concentration at half of the fitted maximal effect.

entry | smiles | Marburg entry inh | RE007 growth inh | Cruzain noTriton | SARS PLpro yeast | 2A StopGo | Cruzain Triton | LASV entry inh | NS1 function inh
1 | COc1cccc(NC(=O)CN2CCN(S(=O)(=O)c3ccc(C(C)C)cc3)CC2)c1 | ? | 27% | 23% | -5% | ? | -8.0% | ? | -42%
2 | O=C(NCC1CCCO1)C1CC1(c1ccccc1)c1ccccc1 (configuration not stated) | · | -3% | 1% | 14% | 4% | -1.7% | · | -4%
3 | COc1cccc(CC(Cc2nc3ccccc3[nH]2)c2nc3ccccc3[nH]2)c1 (configuration not stated) | -29%[46.1 µM] | ? | · | 2% | 5% | · | -6% | ·
4 | CCOC(=O)c1c(COC(=O)c2ccco2)nc2ccccc2[n+]1[O-] | 1% | -5% | -6% | 1% | -18% | -0.5% | 0% | -1%
5 | Cc1ccc(N2C(=O)C3ON(c4ccccc4)C(CC(C)C)C3C2=O)cc1 (configuration not stated) | · | -4% | · | -1% | 45%[activator] | · | · | 1%
6 | CCc1noc(C)c1C(=O)Nc1cc(C(F)(F)F)ccc1-n1cncn1 | 1% | -6% | · | · | -8% | · | 16% | ·
7 | Cc1ccc(C(=O)Nc2ccc(Nc3ccccc3)cc2)c(Cl)c1 | 15% | -6% | · | -2% | -4% | · | 0% | 7%
8 | NC(=O)C1CCN(C(=O)CNC(=O)c2ccc(Br)o2)CC1 | -7% | 6% | · | -1% | -13% | · | 19% | ·
9 | CN(CC(=O)Nc1ccccc1)CC(=O)Nc1ccc(F)cc1 | -5%[46.1 µM] | 18% | · | 1% | 17% | · | -25% | -10%
10 | O=C(CCc1nnc(CCc2ccccc2)o1)NC(c1cccnc1)C(F)(F)F (configuration not stated) | · | 0% | · | -1% | 6% | · | · | -8%
11 | CN(C)CCNc1c2c(nc3nnnn13)CCCC2 | -26%[46.1 µM] | 2% | · | 1% | 19% | · | -7%[46.1 µM] | ·
12 | O=C1C=C(Nc2ccccc2O)c2ccccc2C1=O | ? | ? | -13% | -22% | ? | -3.3% | ? | -80%
13 | N#CCSc1nc(-c2ccccc2)nc2ccccc12 | 11%[46.1 µM] | 13% | · | 1% | -21% | · | -9%[46.1 µM] | -1%
14 | CCn1c(=O)c2ccccc2n(Cc2cccc([N+](=O)[O-])c2)c1=O | 3%[46.1 µM] | 11% | · | -1% | -13% | · | -4%[46.1 µM] | -4%
15 | Cc1ccc(N(Cc2cc3ccccc3[nH]c2=O)C(=O)c2cccc(Cl)c2)cc1 | ? | · | 5% | · | -23% | -6.9% | ? | ·
16 | CCN(CC)CCCNC(=O)c1cc2nc3c(c(C(F)(F)F)n2n1)CCc1ccccc1-3 | · | -1% | · | 0% | -9% | · | -3% | ·
17 | O=C(NC1CCCCC1)C(c1ccc(F)cc1)N(C(=O)c1csnn1)C1CCCC1 (configuration not stated) | -5%[46.1 µM] | 0% | · | -1% | 11% | · | -21% | -1%
18 | CCCCC(=O)OCc1nc(N)nc(Nc2ccccc2C)n1 | -25% | -6% | ? | 17% | 0% | 0.3% | ? | 3%
19 | O=C(CC1c2ccccc2Oc2ccccc21)N1CCN(c2ccccn2)CC1 | -16% | 0% | 8% | -19% | · | -1.5% | -9% | -90%
20 | CC(=O)Nc1ccc(NC(=O)CCSCCc2ccccn2)cc1 | 1%&1%[46.1 µM] | 6% | 8% | 1% | 4%&-14% | -1.3% | 4%&-2%[46.1 µM] | ·
21 | CC(C)(C)SCCNC(=O)CN(c1ccccc1)S(=O)(=O)c1ccc(F)cc1 | -6%[46.1 µM] | -12% | · | 0% | 14% | · | 1% | 8%
22 | CC1CCc2c(sc(NC(=O)c3ccc(-c4ccccc4[N+](=O)[O-])o3)c2C#N)C1 (configuration not stated) | -13% | -2% | 10µM* | 6% | · | 3.8% | -13% | 1%
23 | NC(=O)CSc1nc2ccc([N+](=O)[O-])cc2[nH]1 | 7% | 9% | · | -1% | -7% | · | 20% | ·
24 | Cc1ccc(S(=O)(=O)N2CCCCC2)cc1NC(=O)CCc1nc2ccccc2c(=O)[nH]1 | ? | -18% | · | 2% | 4% | · | 2%[46.1 µM] | ·
25 | CCC1=NN2C(=N)/C(=C/c3ccc(OS(=O)(=O)c4ccccc4)cc3)C(=O)N=C2S1 | · | -3% | · | -4% | -13% | · | · | 1%
26 | COc1ccc(C(NC(=O)C2C3C=CC(C3)C2C(=O)O)c2ccccc2)cc1 (configuration not stated) | 8%[46.1 µM] | 40% | · | 0% | 11% | · | -23% | -3%
27 | COc1ccc(C(=O)/C=C/c2ccc(OC3CSC3)cc2)cc1OC | ? | -21% | 9% | -10% | ? | -4.6% | ? | 0%
28 | O=C(NCC1CCCO1)c1ccccc1-c1nc(-c2ccc(F)cc2)no1 (configuration not stated) | 10% | 6% | 3% | 3% | -19% | -0.4% | 16% | -8%
29 | O=C(/C=C/c1cccc(Cl)c1)Nn1c(-c2cccs2)nc2ccccc2c1=O | 0% | -11% | 13µM* | -22% | -22% | -4.5% | 10% | 5%
30 | COc1ccc(S(=O)(=O)N(C)C)cc1NC(=O)c1ccc(OCC(=O)N2CCOCC2)c(OC)c1 | 26% | -3% | · | -1% | -19% | · | -23% | ·

Part of the list above, as labelled records:
[25] CCC1=NN2C(=N)/C(=C/c3ccc(OS(=O)(=O)c4ccccc4)cc3)C(=O)N=C2S1
  Marburg entry inh: ·; RE007 growth inh: -3%; Cruzain noTriton: ·; SARS PLpro yeast: -4%; 2A StopGo: -13%; Cruzain Triton: ·; LASV entry inh: ·; NS1 function inh: 1%

[23] NC(=O)CSc1nc2ccc([N+](=O)[O-])cc2[nH]1
  Marburg entry inh: 7%; RE007 growth inh: 9%; Cruzain noTriton: ·; SARS PLpro yeast: -1%; 2A StopGo: -7%; Cruzain Triton: ·; LASV entry inh: 20%; NS1 function inh: ·

[22] CC1CCc2c(sc(NC(=O)c3ccc(-c4ccccc4[N+](=O)[O-])o3)c2C#N)C1 (configuration not stated)
  Marburg entry inh: -13%; RE007 growth inh: -2%; Cruzain noTriton: 10µM*; SARS PLpro yeast: 6%; 2A StopGo: ·; Cruzain Triton: 3.8%; LASV entry inh: -13%; NS1 function inh: 1%

[20] CC(=O)Nc1ccc(NC(=O)CCSCCc2ccccn2)cc1
  Marburg entry inh: 1%&1%[46.1 µM]; RE007 growth inh: 6%; Cruzain noTriton: 8%; SARS PLpro yeast: 1%; 2A StopGo: 4%&-14%; Cruzain Triton: -1.3%; LASV entry inh: 4%&-2%[46.1 µM]; NS1 function inh: ·

The list continues.
entry | smiles | Marburg entry inh | RE007 growth inh | Cruzain noTriton | SARS PLpro yeast | 2A StopGo | Cruzain Triton | LASV entry inh | NS1 function inh
31 | COc1cccc(-c2nc(CS(=O)(=O)CC(=O)Nc3cc(C)ccc3C)c(C)o2)c1 | -1%&-1% | -15% | 9% | 3% | -30% | -1.0% | -3% | -36%
32 | CC1=NC(=O)C(N=Nc2cccc(C(=O)O)c2)N1c1ccccc1 (configuration not stated) | 2.6µM* | -1% | 6% | -3% | 8.9µM* | -12% | 2.3µM* | -9%
33 | Cc1ncsc1CCOC(=O)c1ccc(Cl)cc1 | ? | -2% | · | -2% | 46%[activator] | · | ? | -12%
34 | CCNc1nc(NCC)n2c(SCC(=O)Nc3ccc(OC)c(OC)c3)nnc2n1 | ? | 14% | · | -1% | 12% | · | -6% | ·
35 | COc1ccc2c(c1OC)C(=O)N(c1ncn[nH]1)C2 | ? | 4% | 5% | 0% | 17% | 1.0% | ? | -3%
36 | O=c1[nH]nc(Cc2ccc(Cl)cc2)c2ccccc12 | -20% | 0% | -1% | 19% | 0% | -4.0% | 5% | -1%
37 | CCC1(CC)NC(=O)N(CC(=O)OC(C)C(=O)Nc2ccccc2OC)C1=O (configuration not stated) | 25% | -5% | · | -2% | -19% | · | 17% | ·
38 | O=C1Nc2cc3c(cc2Sc2ccccc21)OCCO3 | 0% | 8% | -12% | 9% | ? | 2.2% | 2% | -6%
39 | NC(=O)C1CCN(C(=O)COc2ccc(S(=O)(=O)NCc3ccccc3)cc2Cl)CC1 | ? | -16% | 0% | 16% | 34%[activator] | 1.1% | 11% | 6%
40 | Cc1c(OC(=O)CNC(=O)OC(C)(C)C)ccc2c3c(c(=O)oc12)CCC3 | -2% | -8% | ? | -25% | -18% | -5.3% | 19% | -42%
41 | CCOc1ccc(NC(=O)c2cc(S(=O)(=O)NC3CCCC3)ccc2F)cc1 | · | · | 7% | · | 14% | -3.2% | -1%[46.1 µM] | ·
42 | O=C(Nc1ccc(Cl)c(Cl)c1)Nn1cnnc1 | 3%[46.1 µM] | 6% | · | 3% | -7% | · | 21%[46.1 µM] | -28%
43 | Cc1ccccc1-n1c(=O)cc(NCC2CCCO2)[nH]c1=O (configuration not stated) | 26% | 2% | -7% | 19% | · | 1.5% | -5% | 6%
44 | COc1ccc(C(=O)C2CCCN(Cc3ccc(C)s3)C2)c(OC)c1 (configuration not stated) | ? | -5% | · | 1% | -6% | · | ? | 0%
45 | CC1CCc2c(sc(/N=C/c3ccco3)c2C(N)=O)C1 (configuration not stated) | 2%[46.1 µM] | 1% | · | -1% | 8% | · | 8% | -7%
46 | O=C1C(=O)N2C(=C1C(=O)N1CCCCCC1)c1ccccc1CC21CCCC1 | -18% | 3% | · | 0% | -2% | · | 0% | 6%
47 | CCOc1ccccc1NC(=O)c1nn(-c2ccc(OC)cc2)c(=O)c2c1c1ccccc1n2C | ? | · | -7% | · | -11% | -1.3% | 0%[46.1 µM] | ·
48 | Brc1ccc(OCCn2ccnc2)cc1 | 2% | -8% | -20% | 0% | · | -3.6% | -1% | 1%
